Assay outcomes from PubChem BioAssay.
Vif A3G = inhibitors of Vif binding to APOBEC3G peptide, primary screen, biochemical, TR-FRET, GST-Vif 1-94, biotin-A3G peptide, dose response retest (AID 1117319); TR-FRET GST-Vif / biotin-A3G peptide binding; higher % means a stronger effect; test concentration not given here; strong numbers were not always called active; inhibition, %; hits with a dose series show IC50 in µM; 260,000 compounds, 0.57% hits;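 active = above the screen mean plus three standard deviations and confirmed in dose response; inconclusive = results disagree or hit not tested in dose response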;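 also: Vif residues 1-94 fused to GST binding biotinylated APOBEC3G peptide 110-148; 0% = full assay without inhibitor and 100% = GST in place of GST-Vif; retest series ran down from 100 µM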
HNF4A DNA FP = change in binding of human HNF4 alpha to DNA; AID 1224865; HNF4a-FITC DNA binding, fluorescence polarization, 1 h; P41235; 360,000 compounds, 0.3% hits; activity change, % at 10 µM; in the data active = activity change above about 30%, passing the limit was not always enough;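 also: controls were the assay level and a saturating level of protein; the project sought stronger binding though the title names inhibitors; some compounds called inactive have numbers as strong as hits; positive values seem to mean higher polarization but the record does not say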
Target sequence (P41235 whole entry, looked up): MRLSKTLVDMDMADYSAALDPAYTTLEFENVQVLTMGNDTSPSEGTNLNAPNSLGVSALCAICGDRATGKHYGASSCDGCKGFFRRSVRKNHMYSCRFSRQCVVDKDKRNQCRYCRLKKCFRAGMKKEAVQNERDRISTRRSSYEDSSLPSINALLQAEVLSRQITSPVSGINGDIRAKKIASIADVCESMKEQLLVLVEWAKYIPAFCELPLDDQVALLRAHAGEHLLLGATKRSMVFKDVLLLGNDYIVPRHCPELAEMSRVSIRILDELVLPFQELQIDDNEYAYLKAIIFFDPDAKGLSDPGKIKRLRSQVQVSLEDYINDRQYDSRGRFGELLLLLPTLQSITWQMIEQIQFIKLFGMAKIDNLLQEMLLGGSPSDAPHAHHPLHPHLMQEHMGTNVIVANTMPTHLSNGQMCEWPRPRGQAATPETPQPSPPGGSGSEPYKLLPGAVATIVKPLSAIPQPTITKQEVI
* hit, by the source's call; u = inconclusive.

item | Vif A3G | HNF4A DNA FP | mol
1 | u | -6.7 | O=c1c(/C=N/Nc2ccccc2)c(Sc2nnnn2-c2ccccc2)nc2ccccn12
2 | -10% | 7.8 | CN(C)c1ccc(/C=N\NC(=S)SCN2C(=O)C3CCC(C)(C2=O)C3(C)C)cc1 (stereo not given)
3 | 12% | 0.6 | O=C(Nc1cccc2ccccc12)c1ccc(Br)o1
4 | u | 0.4 | Cc1cccc(-n2nc3c(c2NC(=O)c2ccc(S(=O)(=O)N4CCOCC4)cc2)CSC3)c1C
5 | 8% | -7.8 | CC/C(=N\NC(=O)CNC(=O)/C=C/c1ccco1)c1ccccc1
6 | 8% | -0.7 | O=C(N/N=C/c1ccc(Cl)cc1Cl)Nc1ccccc1
7 | 18% | 2.1 | CCN1/C(=C2/OC(=S)N(C)C2=O)Sc2ccccc21
8 | -6% | 0.5 | CCN1CCN(CCNC(=O)c2ccc3c(c2)NC(=O)/C(=C\c2cccc(Cl)c2)S3)CC1

7 of the compounds above, in markdown:
| No. | SMILES | Vif A3G | HNF4A DNA FP |
| --- | --- | --- | --- |
| 2 | CN(C)c1ccc(/C=N\NC(=S)SCN2C(=O)C3CCC(C)(C2=O)C3(C)C)cc1 (stereo not given) | -10% | 7.8 |
| 3 | O=C(Nc1cccc2ccccc12)c1ccc(Br)o1 | 12% | 0.6 |
| 4 | Cc1cccc(-n2nc3c(c2NC(=O)c2ccc(S(=O)(=O)N4CCOCC4)cc2)CSC3)c1C | u | 0.4 |
| 5 | CC/C(=N\NC(=O)CNC(=O)/C=C/c1ccco1)c1ccccc1 | 8% | -7.8 |
| 6 | O=C(N/N=C/c1ccc(Cl)cc1Cl)Nc1ccccc1 | 8% | -0.7 |
| 7 | CCN1/C(=C2/OC(=S)N(C)C2=O)Sc2ccccc21 | 18% | 2.1 |
| 8 | CCN1CCN(CCNC(=O)c2ccc3c(c2)NC(=O)/C(=C\c2cccc(Cl)c2)S3)CC1 | -6% | 0.5 |

Some of the entries so far, in transposed form.
3) O=C(Nc1cccc2ccccc12)c1ccc(Br)o1
4) Cc1cccc(-n2nc3c(c2NC(=O)c2ccc(S(=O)(=O)N4CCOCC4)cc2)CSC3)c1C

Compound | 3 | 4
Vif A3G | 12% | u
HNF4A DNA FP | 0.6 | 0.4

The list goes on.
item | Vif A3G | HNF4A DNA FP | mol
9 | 10% | 3.2 | Cc1cccc(CN2CCC(CNC(=O)C3CCCN(S(=O)(=O)c4cnc[nH]4)C3)CC2)c1 (stereo not given)
10 | 2% | 28 | CC(C)(C)OC(=O)n1cccc1/C=C1\c2ccccc2C(=O)N1c1ccccc1
11 | 16% | 30 | CN1/C(=C\C=Nc2ccc3ccccc3c2)C(C)(C)c2ccccc21
12 | -2% | 1.2 | O=C(O)COc1ccc(/C=N/n2cnc3scc(-c4cccs4)c3c2=O)cc1
13 | 5% | 2.1 | O=[N+]([O-])c1cc(/C=N/O)ccc1N1CCCC1
14 | 12% | -0.3 | CC(C)N=C1CCCC1C(=S)SSC(=S)C1CCCC1=NC(C)C (stereo not given)
15 | 12% | -1.9 | N#C/C(=C\c1ccc(OC(=O)c2ccc(Br)s2)cc1)c1nc2ccccc2[nH]1
16 | 6% | -1.7 | O=c1/c(=C/c2ccc(O)cc2)sc2n1CCCN=2
17 | u | 0.0 | COc1ccccc1/C=c1\sc2nc(-c3ccccc3OC)nn2c1=O
18 | -2% | 4.2 | CN1CCN(/C=N/c2c(C#N)cnn2-c2ccccc2)CC1
19 | 33% | 0.2 | CC1=C/C(=N\OS(=O)(=O)c2ccccc2)C(C(C)C)=CC1=O
20 | -2% | 34 | COc1cc(/C=c2\s/c(=C(/C#N)C(=O)N3CCCC3)n(-c3ccccc3)c2=O)ccc1O
21 | u | -2.7 | CCCN1C/C(=C/c2cccc([N+](=O)[O-])c2)C(=O)/C(=C/c2cccc([N+](=O)[O-])c2)C1
22 | 3% | 9.5 | COc1cc(/C=c2\sc3n(c2=O)C(c2ccccc2)C(c2ccccc2)=NN=3)ccc1O (stereo not given)
23 | 9% | -54 | CCOc1ccc2nc3cc(N=Nc4ccc(N)nc4N)ccc3c(N)c2c1
24 | 9% | -6.5 | COc1ccc(C[C@@H]2OC3(C=CC(=O)C=C3)O[C@H]2Cc2ccc(OC)cc2)cc1
25 | -6% | 7.3 | Cc1cc2c(cc1C)N(C(=O)CCl)CC(=O)N2

A portion of the library; rates above refer to the full screens.
